GLA spleen mod – inhibitors or activators of human alpha-galactosidase in spleen homogenate; Potency, µM (highest dose often 80 µM), without a hit: at the top dose activity change, negative = inhibition, hits mostly inhibitors; human spleen homogenate, 4MU-alpha-Gal fluorescence, 40 min; 0.008% of 240,000 active; AID 2107; P06280;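 further: 0% = enzyme with vehicle and -100% = no enzyme basal signal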
Target sequence (P06280 32-429 limits assumed): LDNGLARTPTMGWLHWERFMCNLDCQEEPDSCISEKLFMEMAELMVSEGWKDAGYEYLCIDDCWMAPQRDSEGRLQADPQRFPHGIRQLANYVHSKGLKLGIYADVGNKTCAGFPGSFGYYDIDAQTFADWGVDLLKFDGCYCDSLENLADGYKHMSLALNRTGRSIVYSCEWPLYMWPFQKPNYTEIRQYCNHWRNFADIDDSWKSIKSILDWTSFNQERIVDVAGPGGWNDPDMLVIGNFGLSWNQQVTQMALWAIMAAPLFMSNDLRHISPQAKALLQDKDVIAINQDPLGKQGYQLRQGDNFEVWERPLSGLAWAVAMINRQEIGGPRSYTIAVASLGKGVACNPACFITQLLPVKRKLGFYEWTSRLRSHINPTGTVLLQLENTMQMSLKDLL
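Inhibition or activation of alpha-galactosidase in human spleen homogenate is scored by 4-MU fluorescence after 40 min at 37C, pH 5.0, with 1 mM substrate. AC50s come from concentration-response fitted to the Hill equation.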
ALDH1A1 block – blocks purified human ALDH1A1 activity. Purified ALDH1A1, NADH fluorescence, propionaldehyde substrate. Potency, µM (highest dose often 75.3 µM), without a hit: top-dose activity, negative = inhibition, actives largely listed as inhibitors. 7.3% of 220,000 active; active means well fitted inhibition curve with a large enough effect, not every such curve was filed as active; inconclusive means small, poorly fitted or top-dose-only effect, or another doubt; inactive means no such curve, though single readings can be large or run the other way;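 further: plate controls were no enzyme wells and a reference inhibitor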
SMN2 splice up – SMN2 splice variant enhancement; HEK293 SMN2-luciferase splicing reporter, luminescence, 30-36 h; Potency, µM (titrated, usually from 46.1 µM), for inactives: at the highest dose activity change, positive = activation, actives largely listed as activators; 2.8% of 210,000 active; further: % of control where 0% means no effect; nearly all actives have a fitted effect of over 55% in size
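qHTS luciferase splicing reporter: luminescence rises when SMN2 exon 7 is included in transfected HEK293 cells. Compound exposure lasted 30-36 h at 37C, with 4.5 mM final sodium butyrate as control, followed by a ONE-Glo read.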
GAA glycogen mod – alters human alpha-glucosidase cleavage of glycogen. 0.38% of 300,000 active. Potency, µM (titrated, usually from 76.4 µM), without a hit: at the highest dose activity change, negative = inhibition, hits mostly inhibitors. recombinant GAA, glycogen substrate, Amplex Red glucose oxidase fluorescence. P10253;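 further: 0% = full enzyme reaction and -100% = no-enzyme basal signal; the screen sought inhibitors and activators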
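Recombinant enzyme (4 nM final) with compounds titrated up to 77 uM and bovine liver glycogen (30 ug) in citrate pH 5.0, 0.01% Tween-20, 37 C 40 min. Released glucose detected by Amplex Red/glucose oxidase (Ex 573/Em 610); AC50 from Hill fits.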
GAA spleen mod – inhibits or activates alpha-glucosidase in human spleen homogenate; P10253; human spleen homogenate, 4-MU-alpha-glucoside fluorescence; Potency, µM (series often up to 79.9 µM), for inactives: at the highest dose activity change, negative = inhibition, most hits filed as inhibitors; 0.006% of 240,000 active;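 further: 0% = enzyme with vehicle and -100% = no enzyme basal signal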
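Compounds were titrated against alpha-glucosidase in spleen homogenate at pH 5.0, with 1 mM 4-methylumbelliferyl substrate for 40 min at 37 C. Reactions were quenched with pH 10 NaOH/glycine and fluorescence measured.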
GoLoco inh red – RGS12 GoLoco-Gai1 interaction inhibition. P63096. Gai1:RGS12 GoLoco peptide FP, rhodamine, 10 min. Potency, µM (doses to about 61.6 µM), for the others: at the highest dose activity, negative = inhibition, hits mostly inhibitors. 0.44% of 230,000 active; active means well fitted inhibition curve with a large enough effect, not every such curve was filed as active; inactive means no such curve, though single readings can be large or run the other way; further: on the % scale 0 is the no-effect control and ±100 the full control effect; nearly all actives have a fitted effect of over 30% in size; many of its hits are not listed in these tables
Target sequence (P63096 whole entry, looked up): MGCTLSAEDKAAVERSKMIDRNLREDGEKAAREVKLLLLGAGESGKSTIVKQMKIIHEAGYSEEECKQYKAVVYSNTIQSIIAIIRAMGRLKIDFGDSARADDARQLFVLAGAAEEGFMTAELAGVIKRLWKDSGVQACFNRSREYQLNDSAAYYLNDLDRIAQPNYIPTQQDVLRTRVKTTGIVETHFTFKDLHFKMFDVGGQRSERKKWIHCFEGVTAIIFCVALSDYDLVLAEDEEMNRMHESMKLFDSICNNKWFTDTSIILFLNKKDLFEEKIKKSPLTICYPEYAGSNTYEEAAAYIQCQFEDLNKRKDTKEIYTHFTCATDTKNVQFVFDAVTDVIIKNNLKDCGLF
GAA inh – inhibitors of human lysosomal alpha-glucosidase. purified human GAA, 4-MU-alpha-glucoside fluorescence. 0.005% of 200,000 active. Potency, µM (titrated, usually from 76.9 µM), without a hit: at the highest dose activity change, negative = inhibition, most hits filed as inhibitors;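 further: plate controls were uninhibited enzyme wells for no effect and no-enzyme background for full effect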
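Fluorescence at Ex 365/Em 440 nm from 4-methylumbelliferone reported enzyme activity after 20 min at room temperature. Reactions used 4 nM enzyme and 400 uM substrate at pH 5.0; curves fitted with the Hill equation.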
An asterisk follows results filed as active; ? = inconclusive; / = not tested or not shown; [ ] = dose if it differs, or a comment. Unless noted, the call rests on the fitted dose curve; in most records, active means well fitted curve in the direction sought with a large enough effect; inconclusive means small, poorly fitted or top-dose-only effect, or another doubt; inactive means no such curve, though single readings can be large; an effect the other way counts as inactive or inconclusive. Potency means the concentration at half of the fitted maximal effect. This is a subset. The share of hits here may be higher or lower than overall.

No.	Compound	GLA spleen mod	ALDH1A1 block	SMN2 splice up	GAA glycogen mod	GAA spleen mod	GoLoco inh red	GAA inh
1	Cc1ccc(S(=O)(=O)c2cc3c(=O)n4cccc(C)c4nc3n(CC3CCCO3)c2=N)cc1C (configuration not stated)	6%	?	/	-3%	-2%	6%	5%
2	CCN(CC)C(=O)c1[nH]cnc1C(=O)N[C@@H](C)C(=O)OC(C)(C)C	0%	1%	/	12%	-3%	-3%	/
3	C=CCN1C(C(=O)c2ccccc2)=C(OC(=O)COc2ccccc2)c2ccccc2S1(=O)=O	-4%	-3%	-38%[inhibitor]	-4%	-3%	-7%	0%
4	Cc1ccc(NC(=S)Nc2ccc3cn[nH]c3c2)cc1	8%	?	17%	3%	5%	21%	-3%
5	CCCCC(=O)Nc1nn(C)c2nc3c(C)cccc3cc12	10%	?	2%	22%	2%	0%	-24%
6	O=C(Nc1nnc(-c2ccc3c(c2)CCCC3)o1)c1ccc(Cl)cc1Cl	0%	1%	-9%	2%	-4%	0%	12%
7	Cc1ccc(-c2nc3ccccc3s2)cc1NC(=O)c1ccc2c(c1)OCO2	2%	?	-4%	-1%	-3%	-4%	-2%
8	O=C(CN1CCN(S(=O)(=O)c2ccc3ccccc3c2)CC1)Nc1ccc2c(c1)CCC2	5%	-16%	-19%	-3%	3%	1%	-3%
9	Fc1ccc(N/N=C/c2ccc(N3CCOCC3)cc2)c(F)c1	1%	?	11µM*	?	1%	-1%	-37%
10	O=C(Nc1nc2c(s1)CN(Cc1ccccc1)CC2)c1c(F)cccc1F	-9%	19µM*	?	16%	6%	14%	14%
11	CCNc1c2c(nc3ccccc13)CC(C)(C)CC2=O	1%	14µM*	17%	7%	-9%	6%	-8%
12	COc1cccc(NC(=O)C2CC(=O)n3cnnc3S2)c1 (configuration not stated)	-5%	0.71µM*	-15%	-22%	-10%	-23%	0%
13	CC(C(=O)NCC1(c2ccccc2)CCCC1)N1CCCC1 (configuration not stated)	-9%	6%	-11%	-1%	-7%	0%	0%
14	COc1ccc(C(=O)NC(=O)CSc2nnc(-c3ccco3)n2-c2ccccc2)cc1	0%	32µM*	-9%	9%	1%	10%	-1%
15	O=C(Nc1ccccc1Cl)N1CCN(c2ccccn2)CC1	-11%	?	-5%	3%	-3%	3%	4%
16	C=CCc1cc(OC)ccc1OCCOCCN1CCc2ccccc2C1	-4%	?	-49%[inhibitor]	8%	3%	-9%	-9%
17	O=C(O)c1cccnc1SCC(=O)N1CCCc2ccccc21	-7%	/	/	-12%	-15%	40%[activator]	/
18	COC(=O)c1sc2nc(-c3ccccc3)c3c(c2c1N)CCCC3	7%	?	-24%	-3%	-3%	-1%	-5%
19	CCC(C(=O)NNC(=O)c1cnccn1)c1ccccc1 (configuration not stated)	4%	-1%	3%	6%	-1%	11%	1%
20	O=C(CCN1C(=O)c2ccccc2S1(=O)=O)Nc1nc2c(s1)CCCC2	-8%	?	10%	-9%	-8%	-8%	-1%
21	Clc1cccc(-c2nc3nc4ccccc4nc3n2Cc2ccccc2)c1	5%	?	-12%	-12%	3%	-3%	11%
22	COc1ccc(C(=O)NC(=S)Nc2ccc3c4c(cccc24)CC3)cc1OC	1%	13µM*	?	-2%	-2%	4%	-1%
23	C[C@H](NC(=O)c1nc[nH]c1C(=O)N[C@H](C)c1ccccc1)C(=O)OC(C)(C)C	-3%	6%	/	-2%	1%	6%	/
24	Cc1ccc(NC(=O)c2cnccn2)cc1S(=O)(=O)N(C)C	5%	-8%	13%	4%	4%	0%	-4%
25	CC(C)c1ccccc1OCCNS(C)(=O)=O	7%	5%	-3%	8%	2%	-4%	-4%
26	CCOc1nc(-c2ccccc2)ccc1-c1noc(-c2cccs2)n1	13%	6%	1%	3%	-1%	12%	6%
27	Cc1onc(-c2ccccc2)c1C(=O)NC(=S)NNC(=O)c1ccncc1	6%	18µM*	6%	?	5%	195%[activator]	-9%
28	Cc1cc(C)c(-n2[nH]nnc2=S)c(C)c1	5%	22µM*	/	-10%	4%	-11%	7%
29	COc1cc(CNCc2c[nH]c3ccccc23)cc(OC)c1	-4%	?	-46%[inhibitor]	-13%	-16%	4%	10%
30	CSc1cnc2c(N)nc(N(C)C)nc2n1	2%	?	17%	-9%	0%	16%	-8%

(further entries)
The line under a structure holds: GLA spleen mod	ALDH1A1 block	SMN2 splice up	GAA glycogen mod	GAA spleen mod	GoLoco inh red	GAA inh
#31 O=C(O)CCCCCCCCCC(=O)c1cccs1
  -2%	10%	3%	4%	1%	-5%	-6%
#32 CCN(CC)S(=O)(=O)c1ccc(C)c(NC(=O)CN2CCN(Cc3ccccc3)CC2)c1
  -3%	/	/	5%	-7%	-10%	/
#33 COc1ccc(/C(O)=C2/C(=O)C(=O)N(CCN3CCOCC3)C2c2ccccn2)cc1 (configuration not stated)
  -17%	22µM*	/	4%	-4%	/	-24%
#34 O=C1NN=C(CSc2n[nH]c(=S)s2)CS1
  -2%	3.5µM*	/	-26%	-13%	3%	0%
#35 C=CCN(CC=C)CCCOc1ccccc1C(=O)OC
  8%	-15%	-3%	-7%	1%	1%	-2%
#36 Cc1ccc(NC(=O)CSc2ccc(-c3ccco3)nn2)cc1
  3%	3.2µM*	-78%[inhibitor]	8%	2%	-2%	-9%

3 compounds already listed, arranged by heavy-atom count, largest number first.
The line under a structure holds: GLA spleen mod	ALDH1A1 block	SMN2 splice up	GAA glycogen mod	GAA spleen mod	GoLoco inh red	GAA inh
#36 Cc1ccc(NC(=O)CSc2ccc(-c3ccco3)nn2)cc1
  3%	3.2µM*	-78%[inhibitor]	8%	2%	-2%	-9%
#31 O=C(O)CCCCCCCCCC(=O)c1cccs1
  -2%	10%	3%	4%	1%	-5%	-6%
#34 O=C1NN=C(CSc2n[nH]c(=S)s2)CS1
  -2%	3.5µM*	/	-26%	-13%	3%	0%

15 entries from above, sorted by SMILES length, descending.
The line under a structure holds: GLA spleen mod	ALDH1A1 block	SMN2 splice up	GAA glycogen mod	GAA spleen mod	GoLoco inh red	GAA inh
#23 C[C@H](NC(=O)c1nc[nH]c1C(=O)N[C@H](C)c1ccccc1)C(=O)OC(C)(C)C
  -3%	6%	/	-2%	1%	6%	/
#8 O=C(CN1CCN(S(=O)(=O)c2ccc3ccccc3c2)CC1)Nc1ccc2c(c1)CCC2
  5%	-16%	-19%	-3%	3%	1%	-3%
#33 COc1ccc(/C(O)=C2/C(=O)C(=O)N(CCN3CCOCC3)C2c2ccccn2)cc1 (configuration not stated)
  -17%	22µM*	/	4%	-4%	/	-24%
#2 CCN(CC)C(=O)c1[nH]cnc1C(=O)N[C@@H](C)C(=O)OC(C)(C)C
  0%	1%	/	12%	-3%	-3%	/
#7 Cc1ccc(-c2nc3ccccc3s2)cc1NC(=O)c1ccc2c(c1)OCO2
  2%	?	-4%	-1%	-3%	-4%	-2%
#10 O=C(Nc1nc2c(s1)CN(Cc1ccccc1)CC2)c1c(F)cccc1F
  -9%	19µM*	?	16%	6%	14%	14%
#21 Clc1cccc(-c2nc3nc4ccccc4nc3n2Cc2ccccc2)c1
  5%	?	-12%	-12%	3%	-3%	11%
#18 COC(=O)c1sc2nc(-c3ccccc3)c3c(c2c1N)CCCC3
  7%	?	-24%	-3%	-3%	-1%	-5%
#9 Fc1ccc(N/N=C/c2ccc(N3CCOCC3)cc2)c(F)c1
  1%	?	11µM*	?	1%	-1%	-37%
#36 Cc1ccc(NC(=O)CSc2ccc(-c3ccco3)nn2)cc1
  3%	3.2µM*	-78%[inhibitor]	8%	2%	-2%	-9%
#16 C=CCc1cc(OC)ccc1OCCOCCN1CCc2ccccc2C1
  -4%	?	-49%[inhibitor]	8%	3%	-9%	-9%
#12 COc1cccc(NC(=O)C2CC(=O)n3cnnc3S2)c1 (configuration not stated)
  -5%	0.71µM*	-15%	-22%	-10%	-23%	0%
#15 O=C(Nc1ccccc1Cl)N1CCN(c2ccccn2)CC1
  -11%	?	-5%	3%	-3%	3%	4%
#28 Cc1cc(C)c(-n2[nH]nnc2=S)c(C)c1
  5%	22µM*	/	-10%	4%	-11%	7%
#25 CC(C)c1ccccc1OCCNS(C)(=O)=O
  7%	5%	-3%	8%	2%	-4%	-4%

Source: PubChem BioAssay
